Menin MLL FP FL: displaces fluorescein MLL peptide from human menin | AID 1766 | FP activity change, % at 61.4 µM | Fluorescence polarization, fluorescein-MLL peptide displacement from menin | 290,000 tested, under 10 active; inconclusive = falling polarisation curve, or a change in total fluorescence; inactive = total fluorescence flat and polarisation flat or rising; no compound was filed as active; the % refers to the polarisation; negative = inhibition;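 further: % of control where 0% means no effect; inhibitors lower the polarisation; unlabelled MLL peptide was the positive control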
TRPV1 potentiator: human TRPV1 potentiation; TRPV1-expressing cells, Fluo-8 calcium influx, capsaicin EC20 potentiation; host cell line not named in the record; control for the full effect not named in the record; actives 0.02% (n = 320,000); potentiation, % at 8.33 µM; Q8NER1; active means potentiation above 80%; inconclusive means 30% to 80%; inactive means below 30%; further: 0% is about no effect
Target sequence (Q8NER1 whole entry, looked up): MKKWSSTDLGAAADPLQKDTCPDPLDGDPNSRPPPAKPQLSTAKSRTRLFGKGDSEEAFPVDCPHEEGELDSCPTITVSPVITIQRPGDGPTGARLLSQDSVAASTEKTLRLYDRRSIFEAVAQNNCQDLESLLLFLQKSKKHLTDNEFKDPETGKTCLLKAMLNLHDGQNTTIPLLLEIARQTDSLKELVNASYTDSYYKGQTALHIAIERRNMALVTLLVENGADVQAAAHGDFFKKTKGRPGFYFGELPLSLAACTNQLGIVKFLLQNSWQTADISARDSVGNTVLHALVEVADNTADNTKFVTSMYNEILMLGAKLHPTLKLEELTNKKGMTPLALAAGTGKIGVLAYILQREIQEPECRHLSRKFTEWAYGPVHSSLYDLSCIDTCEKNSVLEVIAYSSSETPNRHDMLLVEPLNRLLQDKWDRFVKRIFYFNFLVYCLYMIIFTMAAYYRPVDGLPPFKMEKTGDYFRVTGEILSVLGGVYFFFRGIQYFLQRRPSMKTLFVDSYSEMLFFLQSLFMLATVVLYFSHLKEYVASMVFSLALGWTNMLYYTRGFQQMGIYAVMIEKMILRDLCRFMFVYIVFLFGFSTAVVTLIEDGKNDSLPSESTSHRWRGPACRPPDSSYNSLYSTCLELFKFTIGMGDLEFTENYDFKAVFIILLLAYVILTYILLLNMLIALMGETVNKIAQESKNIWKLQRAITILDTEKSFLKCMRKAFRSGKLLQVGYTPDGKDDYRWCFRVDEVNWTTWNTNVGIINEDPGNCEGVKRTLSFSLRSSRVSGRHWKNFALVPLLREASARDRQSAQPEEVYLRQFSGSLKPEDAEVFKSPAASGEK
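Fluo-8 calcium influx in TRPV1-expressing cells, kinetic read (ex 480/em 520 nm). Compound added and read 3 min for agonist activity, followed by capsaicin at EC20 final and 2 min further read for enhancement.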
CtBP-E1A inh: blocks the CtBP interaction with E1A; AlphaScreen GST-E1A/His-CtBP binding, 1536-well; hits give low values; control for the full effect not named in the record; activity change, % (test concentration not listed); actives 0.49% (n = 340,000); in the data active means activity change below about -65%; inconclusive means about -30% to -65%; inactive means above about -30%; further: on the % scale 0 is the no-effect control and ±100 the full control effect; compound concentration not given in the record
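GST-E1A and His-tagged CtBP (125 nM each as 5X stock) were preincubated with pin-transferred compound for 2 h at 37 °C in the dark, then glutathione donor and nickel acceptor beads were added for 1 h before AlphaScreen reading.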
gsp agonist: gsp mutant agonism; gsp mutant cells, cAMP HTRF, 30 min; control for the full effect not named in the record; Potency, µM (doses to about 76.9 µM), without a hit: top-dose activation (cAMP increase), usual class: activators; actives 0.13% (n = 340,000); active = well fitted activation curve with a large enough effect; inconclusive = small, poorly fitted or top-dose-only effect, or another doubt; inactive = no such curve, though single readings can be large or run the other way; cell line not stated here;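 further: phosphodiesterase inhibitor Ro 20-1724 added with compounds to block cAMP breakdown; potency means the concentration at half of the fitted maximal effect; nearly all actives have a fitted effect of over 60% in size; about a fifth of the inactives were tested at one dose only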
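Cells stably selected in G418 were plated at 2000/well, grown 16-24 hr, then given compounds in DMSO with the PDE inhibitor […] (300 uM solution added) for 30 min at 37C; cAMP was read by HTRF.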
gsp antagonist: gsp mutant antagonism; actives 0.4% (n = 340,000); Potency, µM (titrated, usually from 76.9 µM), for inactives: at the top dose activity change, negative = inhibition, usual class: inhibitors; gsp-mutant cells, cAMP HTRF, 30 min; control for the full effect not named in the record; AID 624288; active = falling curve of any shape with a large fitted effect; inconclusive = falling curve, mostly with a smaller effect; inactive = flat or rising curve; cell line not stated here;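 further: intracellular cAMP measured with PDE inhibitor Ro 20-1724 present during compound exposure; potency means the concentration at half of the fitted maximal effect; on the % scale 0 is the no-effect control and ±100 the full control effect; nearly all actives have a fitted effect of over 65% in size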
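HTRF cAMP measurement after 30 min RT detection following 30 min, 37C compound treatment alongside […] (added as 300 uM solution) in G418-selected cells seeded at 2000/well and grown 16–24 h.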
ClpP mod: qHTS Assay for Activators of ClpP; ATP-dependent Clp protease proteolytic subunit (Bacillus subtilis (strain 168)), P80244; purified B. subtilis ClpP, FRET peptide cleavage, 20 min; Potency, µM (highest dose often 57.5 µM), inactives show at the highest dose activity change, negative = active; actives 1.9% (n = 340,000); AID 651965, 2013; active = well fitted falling curve with a large enough effect; inconclusive = small, poorly fitted or top-dose-only effect; inactive = no such curve, though single readings can be large or run the other way; further: potency means the concentration at half of the fitted maximal effect; the source files actives as falling curves though it sought activators and does not explain the sign; nearly all actives have a fitted effect of over 65% in size; many hits overshoot -100%
Target sequence (P80244 whole entry, looked up): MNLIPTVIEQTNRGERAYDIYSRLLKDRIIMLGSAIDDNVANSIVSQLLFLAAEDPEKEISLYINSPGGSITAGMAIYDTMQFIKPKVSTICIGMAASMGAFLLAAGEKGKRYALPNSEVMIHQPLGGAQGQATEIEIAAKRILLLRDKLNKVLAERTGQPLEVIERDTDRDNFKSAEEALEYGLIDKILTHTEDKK
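FRET quenching reversal measured ClpP activation: 10 microg/mL B. subtilis ClpP at pH 8 with the FRET-FV decapeptide, read at 430 nm after 320 nm excitation. The 20-min minus 0-min signal was scaled between DMSO/no-enzyme wells and ADEP (5.8 microM final).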
Sfp inh: blocks B. subtilis Sfp PPTase activity. Potency, µM, for the others: max response, negative = inhibition, usual class: inhibitors. Q9F4F7. AID 1490. Biochemical Sfp PPTase activity, qHTS. actives 3.5% (n = 310,000); active means well fitted inhibition curve with a large enough effect; inconclusive means small, poorly fitted or top-dose-only effect, or another doubt; inactive means no such curve, though single readings can be large or run the other way;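 further: the enzyme is Sfp with the accession as filed and its product quenches rhodamine fluorescence; potency means the concentration at half of the fitted maximal effect; 0% = enzyme reaction without inhibitor and -100% = no enzyme wells; top concentration of the series not given in the record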
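Step 1, compound plus 15 nM Sfp-PPTase, 15 min, room temperature. Step 2, add rhodamine-CoA (5 uM) and BHQ-2-YbbR (12.5 uM). Step 3, read 525/598 nm fluorescence at 0 and 30 min.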
The depositor's hits bear a star; ? = inconclusive; nt = no result given; & = joins results of further samples; [ ] = dose if it differs, or a comment. Random draw from the library (roughly 5.3% active in at least one column).

SMILES	Menin MLL FP FL	TRPV1 potentiator	CtBP-E1A inh	gsp agonist	gsp antagonist	ClpP mod	Sfp inh
CCN(CC(=O)Nc1ccc(Cl)c(S(=O)(=O)N(C)C)c1)Cc1nc2ccccc2c(=O)[nH]1	4.1	6	-4	-36%[15.4 µM]	-14%	-1.7%	-31%
Cc1ccc(C)c(C(=O)N2CCN(c3ncccn3)CC2)c1	6.9	2	-21	3%	7%	-22%	9%
CCCc1oc(C(=O)O)cc1CN1CCCC1	3.3	16	9	-6%	2%	0.4%	12%
O=C(O)CCC(=O)Nc1ccccc1C(=O)N1CCN(c2ccc(Cl)cc2)CC1	0.3	0	7	18%	3%	nt	11%
C=CCn1c(-c2cc3c(s2)CCC(CC)C3)n[nH]c1=S (stereo not drawn)	-0.7	0	-3	20%[15.4 µM]	?	nt	22%
COc1ccccc1C(=O)OCc1c(-c2ccccc2)ncc2ccccc12	nt	nt	-14	nt	-11%	-25%	nt
CC1=C(C(=O)N2CCOCC2)CC(CC(=O)NC(c2ccccc2)c2ccccc2)C(=O)N1Cc1ccc(F)cc1 (stereo not drawn)	nt	nt	3	-90%[inhibitor]	nt	1.5%	nt
CCOC(=O)c1cc(CC)sc1NC(=O)c1ccc(N2C(=O)CCC2=O)cc1	1.7	3	17	6%	8%	87%	-22%
Cc1cccc(N2CCN(C(=O)CCCCCn3c(=S)[nH]c4ccc(N5CCOCC5)cc4c3=O)CC2)c1C	nt	-5	nt	-1%	-8%	-0.1%	9%
CN(CC(=O)Nc1ccccc1Br)C(=O)c1cccc(S(=O)(=O)N2CCc3ccccc32)c1	nt	nt	-4	7%	-25%	-1.1%	nt
NCCN1CCN(CCN)CC1	1.7	-7	13	5%	9%	-4.4%	-7%
Cc1cccc(C(=O)NCCCNC(=O)c2cccnc2)c1	-3.5	-16	6	0%	13%	nt	17%
O=C(CCl)c1ccc2c(c1)CCN2C(=O)C1CC1	1.7	19	nt	nt	nt	nt	-17%
CS(=O)(=O)N1N=C(c2ccc(Br)cc2)CC1c1ccc2c(c1)OCO2 (stereo not drawn)	?	0	3	?	?	-1.3%	5%
CC1=C(C(=O)Nc2ccc(C)cc2C)C(c2cccc([N+](=O)[O-])c2)n2nc(C(=O)OC(C)C)nc2N1 (stereo not drawn)	0.7	-3	2	?	-3%	-1.0%	-9%
Clc1ccc(CO/N=C/c2cccs2)cc1	-3.1	-6	-7	-1%[15.4 µM]	0%	nt	14%
CC(=O)Nc1ccc(NC(=O)CCNC(=O)c2ccccc2Cl)cc1	-0.1	-2	0	1%	5%	-3.0%	-1%
Cc1ccccc1OCC(=O)NNC(=O)Nc1ccc(Cl)cc1	1.0	?	3	1%	18%	-0.5%	9%
CC(=O)NC12CC3CC(C1)CC(C(=O)Nc1c(C)n(C)n(-c4ccccc4)c1=O)(C3)C2	nt	0	-6	-33%[inhibitor]	8%	-1.5%	13%
CN=C1SC(CC(=O)Nc2sc(C)c(C)c2C(=O)OC)C(=O)N1C (stereo not drawn)	-4.0	18	14	-17%	4%	34%	13%
C[C@@]12C(=O)N(c3ccc(F)cc3)C(=O)N1[C@@H]1c3ccccc3OC[C@@H]1[C@H]2c1ccccc1	-1.1	15	-23	nt	-6%	-2.4%	10%
CCOC(=O)Cc1cc(=O)[nH]n(-c2ccccc2)c1=O	nt	nt	0	4%	7%	nt	nt
O=C(c1ccccc1)N1N=C(c2ccccc2)CC1c1ccc2nccnc2c1 (stereo not drawn)	-1.7	-11	-4	?	-22%	-2.8%	-8%
CCOC(=O)CNC(=O)CSc1nnc(-c2cccc(C)c2)n1-c1ccc(OC)cc1	1.6	?	0	-5%	6.3µM*	0.3%	-19%
CCCCC(=O)NC(NC(=O)CCCC)c1ccc(OCC(C)C)c(OC)c1	0.1	-3	4	25%	14%	-4.5%	-8%
Fc1ccc(Nc2ncnc3ccccc23)cc1	-0.6	-14	7	0%[15.4 µM]	8%	1.0%	-1%
Cc1ccc(N/C=C(\C#N)S(=O)(=O)c2ccccc2)cc1	0.5	-9	9	-46%[inhibitor]	-10%	nt	6%
O=C(NCCN1CCC(Cc2ccccc2)CC1)C1CCN(S(=O)(=O)N2CCC3(CC2)OCCO3)CC1	-0.1	-4	nt	20%	-1%	-0.1%	10%
O=S(Cc1ccc(Br)cc1)Cc1nnc(SCc2c(Cl)cccc2Cl)n1-c1ccccc1 (stereo not drawn)	-0.4	-1	23	-47%[inhibitor]	?	1.4%	?
COc1cc(N)ccc1C(=O)O	-2.0	4	4	-5%	7%	-0.3%	6%

Only gsp agonist, for some of the entries so far:
smiles | gsp agonist
O=C(O)CCC(=O)Nc1ccccc1C(=O)N1CCN(c2ccc(Cl)cc2)CC1 | 18%
C=CCn1c(-c2cc3c(s2)CCC(CC)C3)n[nH]c1=S (stereo not drawn) | 20%[15.4 µM]

Next compounds:
SMILES	Menin MLL FP FL	TRPV1 potentiator	CtBP-E1A inh	gsp agonist	gsp antagonist	ClpP mod	Sfp inh
COc1ccc(NC(=O)Nc2nnc(CC(=O)Nc3ccccc3)s2)cc1	0.9	16	-14	4%	15%	-1.8%	13%
C=CCOc1ccc2nc(NC(=O)OC)[nH]c2c1	-0.1	-7	0	-20%	23%	-0.3%	12%
O=C(O)Cn1cc2c(n1)CCCCC2	1.5	12	0	26%	8%	-1.8%	18%
O=C(COC(=O)c1ccc(Br)o1)NCc1cccs1	2.1	-9	2	-11%	0%	-0.6%	-2%
COc1ccc(C(=O)n2nc(C)c(Br)c2C)cc1OC	-5.0	-3	-3	-3%	7%	nt	17%
Cc1ccccc1CSCC(=O)Nc1ccccc1Br	-2.3	-10	29	6%	-3%	-0.2%	-2%
COc1ccc(C)cc1S(=O)(=O)N(C)CC(=O)NC1CCCC1	3.9	16	1	?	9%	?	22%
Cc1ccc(NC(=O)CSc2nc(=O)n(CCCN3CCOCC3)c3c2CCCC3)cc1	nt	2	-17	0%	-1%	-8.8%	nt
CCCCc1cc(=O)oc2cc(C)cc(OCC(=O)NCc3ccccn3)c12	-0.8	6	-3	1%	-5%	3.6%	12%
CCCc1ccc(OC(=O)c2cccs2)cc1	0.5	3	42	15%	-3%	0.2%	?
CCOc1ccc(S(=O)(=O)N2CCC(C(=O)NCC3CCCO3)CC2)cc1C (stereo not drawn)	4.2	4	7	-14%	9%	nt	4%
CCn1ccnc1CN(C)Cc1nc(-c2ccccc2)no1	6.7	5	1	18%	7%	nt	-1%
CCOC(=O)CCC(=O)Nc1cc(S(=O)(=O)N2CCOCC2)ccc1N1CCCCC1	nt	-8	-2	39%	15%	-1.1%	nt
CCN(CCO)Cc1csc2ccc(C(C)(C)C)cc12	-4.2	1	-4	?	17%	0.5%	-15%
FC(F)(F)Oc1ccc(NC(=S)NCCCN2CCOCC2)cc1	1.0	-11	nt	-10%	6%	-0.6%	56µM*

Single entries from the results shown.
Entry for Cc1ccc(N/C=C(\C#N)S(=O)(=O)c2ccccc2)cc1 under gsp agonist: -46%[inhibitor]
Entry for CCCc1oc(C(=O)O)cc1CN1CCCC1 under ClpP mod: 0.4%

Next section:
SMILES	Menin MLL FP FL	TRPV1 potentiator	CtBP-E1A inh	gsp agonist	gsp antagonist	ClpP mod	Sfp inh
OC(CC#CCN1CCOCC1)(c1ccccc1)c1ccccc1	1.0	8	nt	0%	6%	2.6%	-1%
COc1ccc(N(C(=O)c2cnccn2)C(C(=O)NC2CCCCC2)c2ccc(Cl)cc2)cc1 (stereo not drawn)	nt	nt	4	21%[15.4 µM]	1%	0.0%	nt
CC(C)(C)C1CCC(OCC(O)CN2CCN(c3ccccn3)CC2)CC1 (stereo not drawn)	-9.2	3	13	16%[15.4 µM]	-14%	-1.8%	5%
O=C(O)Cn1c(=O)n(Cc2ccccc2)c2ccccc21	4.4	-4	-12	-2%	5%	-2.5%	20%
COc1ccc(C(=O)NCC(=O)OCc2ccc(F)cc2)cc1	-4.3	-5	11	13%[15.4 µM]	0%	nt	22%
O=C1c2cccnc2C(Nc2ccc(F)c(Cl)c2)N1Cc1cccs1 (stereo not drawn)	0.6	-9	-6	?	-1%	-1.0%	-10%
CC(C)OC(=O)CSc1nnc(COc2ccc([N+](=O)[O-])cc2)n1C	-4.6	-3	4	-3%[15.4 µM]	3%	nt	14%
CCCn1c(C(CO)Nc2nc(C)cs2)nc2ccccc21 (stereo not drawn)	0.5	16	0	8%	6%	-0.6%	6%
COC(=O)C[C@H]1C[C@@H]2c3cc(NC(=O)Nc4ccccc4)ccc3O[C@@H]2[C@@H](CO)O1	nt	nt	-1	-8%	nt	-0.2%	nt
Nc1nc2ncc(C(=O)c3cc(F)ccc3O)cc2s1	8.9	7	-8	6%[15.4 µM]	2%	nt	4%
COc1cc(C(=O)N2CCCN(c3nc4cc(C)ccc4cc3C#N)CC2)cc(OC)c1OC	-2.1	-17	-2	-64%[inhibitor]	-2%	?	-6%
COc1ccccc1N(C)S(=O)(=O)c1ccc(C(=O)NCCc2ccc(F)cc2)cc1	-0.1	1	8	0%[15.4 µM]	?	nt	11%
COc1cc(C(=O)NCc2cccc3ccccc23)cc(Cl)c1OC	4.3	9	0	-57%[inhibitor]	-3%	-3.5%	8%
COc1cc(CNS(=O)(=O)CCl)cc(OC)c1OC	nt	-8	8	nt	9%	-1.4%&-1.3%	nt
Cc1ccc(NC(=O)CSc2n[nH]c(-c3ccccn3)n2)cc1	1.9	-15	-90*	15%	-29%	nt	3%
COc1ccc(C2c3c(c(C)c(C)oc3=O)Oc3c(C)c(C)oc(=O)c32)cc1	nt	-2	4	nt	-5%	-9.9%	nt
O=C(Nc1ccc(N2CCOCC2)c(F)c1)c1cccs1	-7.8	-9	5	29%	2%	1.3%	1%
COc1ccc(S(=O)(=O)n2ccnc2)c2cccnc12	1.8	0	-1	20%	2%	13µM*	13%
C=CCn1c(C)cc(C(=O)COC(=O)[C@@H](NC(=O)c2ccccc2Cl)C(C)C)c1C	4.2	2	-8	12%	-3%	2.6%	7%
CCN(CC)C(=O)c1[nH]cnc1C(=O)N[C@@H](Cc1ccccc1)C(=O)OC(C)(C)C	-0.5	-15	7	-27%	15%	-0.5%	11%
CCOc1ccc(C(C)=O)cc1COC(=O)c1ccccc1C(=O)N(C)Cc1ccccc1	nt	-27	-13	11%	-16%	161%	nt
